# TRPV1 potentiator = potentiators of human vanilloid receptor 1 (TRPV1) | potentiation, % at 8.33 µM | TRPV1-expressing cells, Fluo-8 calcium influx, capsaicin EC20 potentiation; host cell line not named in the record; control for the full effect not named in the record | 0.02% of 320,000 active | Q8NER1; active means potentiation above 80%; inconclusive means 30% to 80%; inactive means below 30%; further: 0% is about no effect
#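 Fluo-8 calcium influx in TRPV1-expressing cells, kinetic read (ex 480/em 520 nm). Compound added and read 3 min for agonist activity, followed by capsaicin at EC20 final and 2 min further read for enhancement.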
# Sfp PPTase inh = blocks B. subtilis Sfp PPTase activity; 3.5% of 310,000 active; AID 1490; Q9F4F7; Potency, µM, inactives show max response, negative = inhibition, usual class: inhibitors; Biochemical Sfp PPTase activity, qHTS; active means well fitted inhibition curve with a large enough effect; inconclusive means small, poorly fitted or top-dose-only effect, or another doubt; inactive means no such curve, though single readings can be large or run the other way;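 further: the enzyme is Sfp with the accession as filed and its product quenches rhodamine fluorescence; potency means the concentration at half of the fitted maximal effect; 0% = enzyme reaction without inhibitor and -100% = no enzyme wells; top concentration of the series not given in the record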
#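 Fluorescence-quenching assay: 15 nM Sfp-PPTase preincubated 15 min at room temperature with compound, then 5 uM rhodamine-CoA and 12.5 uM BHQ-2-labelled YbbR peptide added. Fluorescence (ex 525/em 598 nm) read at start and after 30 min; difference gives rate.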
# gsp ag = activates gsp, the McCune-Albright syndrome mutation; gsp mutant cells, cAMP HTRF, 30 min; control for the full effect not named in the record; Potency, µM (highest dose often 76.9 µM), without a hit: at the highest dose activation (cAMP increase), hits mostly activators; 0.13% of 340,000 active; active = well fitted activation curve with a large enough effect; inconclusive = small, poorly fitted or top-dose-only effect, or another doubt; inactive = no such curve, though single readings can be large or run the other way; cell line not stated here;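 further: phosphodiesterase inhibitor Ro 20-1724 added with compounds to block cAMP breakdown; potency means the concentration at half of the fitted maximal effect; nearly all actives have a fitted effect of over 60% in size; about a fifth of the inactives were tested at one dose only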
#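 Cells stably selected in G418 were plated at 2000/well, grown 16-24 hr, then given compounds in DMSO with the PDE inhibitor […] (300 uM solution added) for 30 min at 37C; cAMP was read by HTRF.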
# D2 potentiator = positive allosteric modulators of human D2 dopamine receptor; 0.23% of 360,000 active; potentiation, % (no concentration beside the values); P14416; AID 624464; DiscoveRx D2 beta-arrestin cells, luminescence, 90 min; 100% = 57 uM dopamine signal; active = potentiation of 50% or more; inconclusive = 30% to 50%; inactive = 30% or less;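 further: compound concentration not given in the record; tested on top of an EC20 dose of dopamine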
# Target sequence (P14416 whole entry, looked up): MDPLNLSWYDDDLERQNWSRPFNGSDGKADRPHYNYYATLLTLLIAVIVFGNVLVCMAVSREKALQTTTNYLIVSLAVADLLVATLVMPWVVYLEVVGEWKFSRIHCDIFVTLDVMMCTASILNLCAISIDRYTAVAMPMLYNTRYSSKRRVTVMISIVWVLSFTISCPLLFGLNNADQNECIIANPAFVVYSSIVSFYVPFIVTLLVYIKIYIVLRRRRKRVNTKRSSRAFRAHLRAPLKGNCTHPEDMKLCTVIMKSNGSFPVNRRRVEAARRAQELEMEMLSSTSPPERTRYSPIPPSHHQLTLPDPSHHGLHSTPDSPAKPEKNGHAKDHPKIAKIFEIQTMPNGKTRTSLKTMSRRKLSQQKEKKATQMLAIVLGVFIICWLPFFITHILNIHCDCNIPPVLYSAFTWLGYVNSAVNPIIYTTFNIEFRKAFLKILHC
#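 PathHunter beta-arrestin assay in DiscoveRx D2 cells. Compounds were added with an EC20 of dopamine (50 nM final) for 90 min at 37 deg C. Luminescence was read 1 h after detection reagent, with 57 uM dopamine as the EC100 control.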
# Menin-MLL FL inh = displaces fluorescein MLL peptide from human menin; FP activity change, % at 61.4 µM; AID 1766; Fluorescence polarization, fluorescein-MLL peptide displacement from menin; 290,000 tested, under 10 active; inconclusive = falling polarisation curve, or a change in total fluorescence; inactive = total fluorescence flat and polarisation flat or rising; no compound was filed as active; the % refers to the polarisation; negative = inhibition;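 further: % of control where 0% means no effect; inhibitors lower the polarisation; unlabelled MLL peptide was the positive control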
# ClpP mod = qHTS Assay for Activators of ClpP. 1.9% of 340,000 active. purified B. subtilis ClpP, FRET peptide cleavage, 20 min. Potency, µM (highest dose often 57.5 µM), inactives show at the highest dose activity change, negative = active; active = well fitted falling curve with a large enough effect; inconclusive = small, poorly fitted or top-dose-only effect; inactive = no such curve, though single readings can be large or run the other way; further: potency means the concentration at half of the fitted maximal effect; the source files actives as falling curves though it sought activators and does not explain the sign; nearly all actives have a fitted effect of over 65% in size; many hits overshoot -100%
# Target sequence (P80244 whole entry, looked up): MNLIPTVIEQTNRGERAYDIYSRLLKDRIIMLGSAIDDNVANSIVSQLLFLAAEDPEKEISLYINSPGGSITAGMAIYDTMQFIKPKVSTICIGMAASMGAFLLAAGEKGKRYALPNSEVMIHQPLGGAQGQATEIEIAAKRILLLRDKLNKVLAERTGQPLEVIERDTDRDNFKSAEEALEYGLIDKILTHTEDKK
#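 Buffer: 100 mM Tris/HCl pH8, 100 mM KCl, 0.05% low protease BSA, 2.5% glycerol, 0.01% Tween-20. ClpP 10 microg/mL final; 20 min RT; delta FRET normalized to ADEP and DMSO controls.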
# gsp antagonist = antagonists of gsp mutant (McCune-Albright syndrome); AID 624288; gsp-mutant cells, cAMP HTRF, 30 min; control for the full effect not named in the record; 0.4% of 340,000 active; Potency, µM (series often up to 76.9 µM), for inactives: top-dose activity change, negative = inhibition, most hits filed as inhibitors; active = falling curve of any shape with a large fitted effect; inconclusive = falling curve, mostly with a smaller effect; inactive = flat or rising curve; cell line not stated here;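 further: intracellular cAMP measured with PDE inhibitor Ro 20-1724 present during compound exposure; potency means the concentration at half of the fitted maximal effect; on the % scale 0 is the no-effect control and ±100 the full control effect; nearly all actives have a fitted effect of over 65% in size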
#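 G418-selected cells were plated in DMEM/10% FBS for 16-24 h at 37C, then treated with compounds plus the PDE inhibitor […] (300 uM solution added) for 30 min at 37C. Intracellular cAMP was measured by HTRF after 30 min lysis at room temperature.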
# * = called active by the depositor; u = inconclusive; x = no result given; [ ] = remark or other dose.
cpd	SMILES	TRPV1 potentiator	Sfp PPTase inh	gsp ag	D2 potentiator
1	CCN(CC)C(=O)CSC1=N/C(=C/c2ccco2)C(=O)N1c1ccc(OC)c(Cl)c1	-10	u	-12%	-16
2	COc1ccccc1C1CC(=O)Oc2cc(C)c(Cl)c(C)c21 (stereo not given)	x	u	x	3
3	O=C(NC1CCS(=O)(=O)C1)/C(=C\c1ccc(F)cc1)NC(=O)c1ccccc1 (stereo not given)	2	7%	1%[15.4 µM]	-4
4	COc1ccc(/C=C(/NC(=O)/C=C/c2ccccc2)C(=O)NCCCCCC(=O)O)cc1	-2	24%	-45%[15.4 µM]	-2
5	CCOC(=O)c1ccc(NC(=O)c2cnccn2)cc1	-23	-2%	9%	-11
6	O=C1C=C(c2cc(C(F)(F)F)cc(C(F)(F)F)c2)C[C@@H](c2ccc3c(c2)OCO3)C1	-3	x	-7%	-10
7	O=C(NCCCN1CCN(c2ccccc2F)CC1)Nc1ccccc1[N+](=O)[O-]	-1	3%	-6%	-17
8	C/C(=N/O)c1ccc2c(c1)OCCOCCOc1cc(/C(C)=N/O)ccc1OCCOCCO2	6	16%	26%	4
9	CCOC(=O)C1CCN(C(=O)CCc2nnc3ccc(N4CCN(C)CC4)nn23)CC1	-10	17%	u	-3
10	O=C(COC(=O)CCCOc1ccccc1)NC1CCS(=O)(=O)C1 (stereo not given)	-4	x	1%[15.4 µM]	5
11	CC1CCc2ccccc2N1C(N)=Nc1ccccc1 (stereo not given)	4	9%	1%	-9
12	COc1ccc(-c2cn3nc4c(nc3n2)CCCC4)cc1	11	-25%	19%	0

cpd	Menin-MLL FL inh	ClpP mod	gsp antagonist
1	u	-1.7%	u
2	4.0[94.6 µM]	-2.4%	-29%
3	-6.1	x	2%
4	4.2	x	1%
5	-1.4	0.4%	-8%
6	x	-2.7%	-1%
7	-4.3	1.3%	-1%
8	10	-0.4%	-2%
9	2.9	-2.0%	1%
10	x	x	7%
11	-1.9	0.9%	17%
12	u	1.0%	-6%

# More entries.
cpd	SMILES	TRPV1 potentiator	Sfp PPTase inh	gsp ag	D2 potentiator
13	COc1ccccc1Oc1ccc2c(c1)C(=O)N(c1cccc3ncccc13)C2=O	-2	-13%	-3%[15.4 µM]	-4
14	COCCCNc1nc2c(c(=O)[nH]c(=O)n2C)n1CC(O)COc1cccc(C)c1 (stereo not given)	-3	-5%	-38%[inhibitor]	-17
15	O=c1c2cc(Br)ccc2nc(-c2cccc(Cl)c2)n1O	-4	11%	19%	-6
16	COc1ccccc1Oc1ncnc2c1oc1ccccc12	-9	0%	u	-2
17	COc1ccc(C2C(C#N)=C3NC(=O)c4c(sc5c4CCCCC5)N3C3=C2C(=O)CC(C)(C)C3)cc1 (stereo not given)	-8	56µM*	-17%	-10
18	CCc1ccc(NC(=O)NCC2CCN(Cc3cccc(Cl)c3)CC2)cc1	6	1%	2%	-10
19	CCOc1ccc(S(=O)(=O)N2CN(c3cccc(C(C)=O)c3)c3nc4ccccc4nc32)cc1	x	x	-21%	-16
20	O=CNC(n1cnc2c(N3CCOCC3)ncnc21)C(Cl)(Cl)Cl (stereo not given)	6	4%	-54%[inhibitor]	-12
21	CNc1snc(C)c1C(=O)OC(C)C(=O)Nc1ccc(F)cc1 (stereo not given)	-21	x	-33%[inhibitor]	-1
22	Cc1ccc2c(c1)C1(C(=O)N2)N2CCCC2C(C(=O)c2ccc3ccccc3c2)C12C(=O)Nc1ccccc12 (stereo not given)	-2	10%	4%[15.4 µM]	-8
23	Cc1nn(CC(=O)N(C)C2(C#N)CCCCC2)c(C)c1[N+](=O)[O-]	-3	x	22%	-7
24	CCOC(=O)CSc1nc(N)c(C#N)c(-c2ccc(OC)cc2)c1C#N	20	-12%	u	-15

cpd	Menin-MLL FL inh	ClpP mod	gsp antagonist
13	0.2	x	u
14	4.9	-2.6%	-4%
15	-0.5	x	u
16	-3.6	x	-2%
17	u	10%	-25%
18	-0.2	-5.0%	7%
19	x	-25%	2%
20	-0.1	1.2%	3%
21	x	0.2%	-3%
22	5.8	x	-14%
23	x	-1.4%	8%
24	6.0	-6.6%	11%

# An excerpt from above in order of molecular weight, high to low.
cpd	SMILES	TRPV1 potentiator	Sfp PPTase inh	gsp ag	D2 potentiator
14	COCCCNc1nc2c(c(=O)[nH]c(=O)n2C)n1CC(O)COc1cccc(C)c1 (stereo not given)	-3	-5%	-38%[inhibitor]	-17
13	COc1ccccc1Oc1ccc2c(c1)C(=O)N(c1cccc3ncccc13)C2=O	-2	-13%	-3%[15.4 µM]	-4
20	O=CNC(n1cnc2c(N3CCOCC3)ncnc21)C(Cl)(Cl)Cl (stereo not given)	6	4%	-54%[inhibitor]	-12

cpd	Menin-MLL FL inh	ClpP mod	gsp antagonist
14	4.9	-2.6%	-4%
13	0.2	x	u
20	-0.1	1.2%	3%

# (more compounds)
cpd	SMILES	TRPV1 potentiator	Sfp PPTase inh	gsp ag	D2 potentiator
25	Cc1cc(OCC(=O)c2ccc(C(F)(F)F)cc2)n2cnnc2n1	10	1%	-2%[15.4 µM]	0
26	COC(=O)c1ccsc1NC(=O)CN1C(=O)CCC1=O	-5	u	u	-3
27	O=C(Nc1ccc(S(=O)(=O)Nc2nccs2)cc1)c1ccc(F)c(S(=O)(=O)N2CCOCC2)c1	-2	17%	u	-9
28	O=S(=O)(Nc1nc2ccccc2nc1N1CCN(CCO)CC1)c1cc(F)ccc1F	21	x	-12%	-1
29	CCc1nc(N[C@@H](Cc2c[nH]c3ccccc23)C(=O)O)c2oc3ccccc3c2n1	1	15%	14%	-7
30	O=C(O)CSCC(=O)Nc1ccc(Cl)cc1C(F)(F)F	0	26%	-13%	9
31	COc1ccc2c(C(=O)CN3CCSCC3)c[nH]c2c1	x	u	-15%[15.4 µM]	-3
32	COc1ccccc1OCc1csc(NC(=O)c2ccco2)n1	8	16%	-21%	-17
33	COc1ccc(N(Cc2cc3cccc(C)c3[nH]c2=O)C(=O)C2CCCO2)cc1 (stereo not given)	-4	9%	-8%	-6
34	O=C1c2ccccc2C(=O)N1CCSc1ccccc1	-11	16%	-3%	-7
35	CCN(CC)C(=O)c1[nH]cnc1C(=O)Nc1cccc(Cl)c1	-5	x	x	-16
36	Cc1cc(OC(=O)c2ccc(Cl)cc2)cc(=O)n1C	-4	-6%	-48%[inhibitor]	-1

cpd	Menin-MLL FL inh	ClpP mod	gsp antagonist
25	24	-1.5%	6%
26	-3.6	-2.0%	8%
27	0.3	0.8%	1%
28	x	-8.3%	9%
29	3.0	-2.6%	13%
30	0.1	x	-3%
31	3.2	x	-2%
32	1.1	-2.7%	1%
33	1.7	-21%	0%
34	0.4	-2.3%	u
35	x	-2.3%	-2%
36	3.6	3.3%	-1%

# Next part
cpd	SMILES	TRPV1 potentiator	Sfp PPTase inh	gsp ag	D2 potentiator
37	O=C(NC1CCCCCC1)c1cc(S(=O)(=O)N2CCOCC2)ccc1F	-8	6%	u	-6
38	Cc1csc(SCC(=O)Nc2cc([N+](=O)[O-])ccc2F)n1	-1	x	15%	0
39	CCOCCCNC(=O)c1cccc(NC(=O)C2=C(C)OCCS2)c1	8	21%	u	-10
40	COC(=O)C1=CN(Cc2ccc(C)cc2)C=C(C(=O)OC)C1c1ccc(F)c(F)c1	2	4%	-16%	-4
41	CCc1cc2c(SCC(=O)Nc3cc(C)on3)ncnc2s1	-5	5%	-8%[15.4 µM]	-7
42	CCOc1ncccc1C(=O)Nc1cccc(-c2nc3cccnc3s2)c1	20	10%	0%[15.4 µM]	7
43	COc1ccc(S(N)(=O)=O)cc1C(=O)OCC(=O)NC(C)(C#N)C1CC1 (stereo not given)	1	x	8%	-22
44	COc1cc(C(=O)N2CCN(C)C(C)C2)ccc1OC1CCN(C(C)=O)CC1 (stereo not given)	12	8%	-10%	-11
45	O=C(NCc1cccc(F)c1)C1CCC(=O)N(CCc2cccc(F)c2)C1 (stereo not given)	-1	1%	11%	0
46	CC(=O)c1ccc(N2CCN(C(=O)Nc3ccc(F)cc3)CC2)cc1	-11	7%	x	x
47	Cc1ccc(N2CC(O)Cn3c2nc2c3c(=O)n(C)c(=O)n2C)cc1 (stereo not given)	-5	15%	u	-5
48	Cc1noc(C)c1NC(=O)N(C)C[C@H]1Oc2ccc(NS(=O)(=O)c3cn(C)cn3)cc2C(=O)N([C@H](C)CO)C[C@@H]1C	x	x	9%	-1

cpd	Menin-MLL FL inh	ClpP mod	gsp antagonist
37	0.3	-2.5%	18%
38	x	0.8%	-6%
39	1.6	-0.9%	7%
40	-6.0	x	-1%
41	3.3	x	12%
42	-0.2	x	-13%
43	x	-2.9%	8%
44	0.0	8.7%	15%
45	x	2.7%	3%
46	-1.3	x	x
47	-0.3	-2.6%	8%
48	x	-8.8%	13%

# Further entries:
cpd	SMILES	TRPV1 potentiator	Sfp PPTase inh	gsp ag	D2 potentiator
49	Cc1ccc(C(=O)/C=C/Nc2cccc([N+](=O)[O-])c2)o1	-13	-11%	29%	-16
50	Cc1nn(-c2ccc(F)cc2F)c2c1-c1nc(N3CCCC3)ncc1CC2	-1	6%	-13%	-9
51	Cc1c(/C=N/NC(=O)c2cccnc2)c2ccccn2c1C(=O)c1ccc(F)cc1	u	15%	x	x
52	CCCOc1cccc(C2C(C(=O)c3ccco3)=C(O)C(=O)N2CCCn2ccnc2)c1 (stereo not given)	-13	5%	1%	-6
53	Cc1onc(CO)c1C(=O)Nc1nccs1	-3	6%	-40%[inhibitor]	-1
54	Cc1ccc(S(=O)(=O)Cn2nnnc2C(CC(C)C)N2CCN(C3CCCC3)CC2)cc1 (stereo not given)	1	-12%	-4%[15.4 µM]	-17
55	N#CNC(=Nc1cccc(F)c1)SCc1ccccc1	-6	11%	1%	-16
56	CC(CC(=O)NNC(=O)c1ccncc1)c1ccccc1 (stereo not given)	0	x	29%[15.4 µM]	-1

cpd	Menin-MLL FL inh	ClpP mod	gsp antagonist
49	15	-1.2%	-7%
50	1.7	32µM*	-8%
51	0.9	x	x
52	x	-0.2%	10%
53	0.6	x	-3%
54	0.5	-3.0%	7%
55	4.8	0.5%	2%
56	x	x	9%
